# High-throughput results deposited in PubChem by National Center for Advancing Translational Sciences (NCATS).
# HPGD block: blocks human HPGD enzyme activity | P15428 | purified HPGD, NADH fluorescence kinetic, PGE2 substrate | Potency, µM, for inactives: at the top dose activity change, negative = inhibition, hits mostly inhibitors | 150,000 tested, 4.3% active | AID 894; active = well fitted inhibition curve with a large enough effect (not every such curve was filed as active); inconclusive = small, poorly fitted or top-dose-only effect, or another doubt; inactive = no such curve, though single readings can be large or run the other way;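 note: top concentration of the series not given in the record; plate controls included wells without enzyme; inactives centre near -10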
# Target sequence (P15428 whole entry, looked up): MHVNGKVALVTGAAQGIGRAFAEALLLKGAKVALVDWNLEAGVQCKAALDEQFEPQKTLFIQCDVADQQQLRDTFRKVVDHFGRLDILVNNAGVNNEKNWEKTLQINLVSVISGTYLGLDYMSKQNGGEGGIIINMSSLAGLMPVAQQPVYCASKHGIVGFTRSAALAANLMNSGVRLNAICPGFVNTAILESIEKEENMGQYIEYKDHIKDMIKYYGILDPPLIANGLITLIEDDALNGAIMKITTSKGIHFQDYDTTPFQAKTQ
#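 NADH formation kinetics: reaction with 30 uM PGE2 and 1 mM NAD+ (final), 20 nM enzyme, Tris-HCl pH 8 with Tween 20, after 15 min compound preincubation at room temperature. Fluorescence change, last versus first of five reads.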
# Numbers without * were called inactive; u = inconclusive; & = joins results of further samples. % is set by controls: 0 for no effect and ±100 for the full control effect; potency is the fitted concentration of half-maximal effect. Only part of the results is shown; rates above refer to the full screens.
SMILES,HPGD block
O=C(CSc1nc2c(c(=O)n1-c1ccc(Br)cc1)SCC2)NCc1ccco1,-13%
COc1ccc(S(=O)(=O)Nc2ccc(S(=O)(=O)Nc3nc(C)cc(C)n3)cc2)cc1OC,-9%
Cc1ccccc1Cn1nnc(C(=O)Nc2cccc(C)c2C)c1N,-25%
C/C=C/c1ccc(OCCCNCC(C)O)c(OC)c1 (stereo not drawn),-1%
CCOc1ccc(NC(=O)CN(C)CC(=O)Nc2cccc(Cl)c2C)cc1OCC,1%
COc1ccc(-c2ccc(SCC(=O)N3CCOCC3)nn2)cc1OC,-21%
CC(=O)C(C)=O,-6%&-1%
Cc1nc(N2CCN(S(=O)(=O)c3ccc(F)cc3)CC2)c2c(C)c(C)sc2n1,-9%
Cc1cccc(-c2cc3nc(C)cc(NCCCN(C)C)n3n2)c1,u
Clc1cc(Cl)c2nc(N3CCOCC3)sc2c1,-5%
COC(=O)c1cc(COC(=O)c2ccc(OC)c(S(=O)(=O)N3CCCC3)c2)oc1C,-26%
O=C(OCn1nnc2ccccc2c1=O)c1cc(-c2ccccc2Cl)nc2ccccc12,-17%
CC(C)NC(=O)N1CC[C@@]2(CCCN(C(=O)c3cnccn3)C2)C1,1%
COc1ccccc1CNc1ncncc1-c1cccc(C#N)c1,-20%
Cc1ccnc(N2CCC(C(=O)Nc3nnc(C)s3)CC2)n1,u
CC(C)OC(=O)CSc1nnc(-c2cnccn2)n1-c1ccc(Cl)cc1,-20%
COc1ccc(-c2cc(C(F)(F)F)nc(SCCC(=O)N3CCOCC3)n2)cc1,-18%
COc1ccc(OCc2ccc(-c3nc4ccccc4c(=O)n3N)o2)cc1,-3%
O=C(Cn1nc(Cc2cccnc2)c2ccccc2c1=O)NCc1ccc(F)cc1,-2%
COc1ccc(C(=O)N(NC(=O)Oc2ccccc2)C(C)(C)C)cc1,-13%
O=C(Nc1ccc(F)cc1)N1CCN(c2nc3ccccc3s2)CC1,-19%
O=C(NCc1cccnc1)/C(=N\O)c1ccccc1,-2%
CCOC(=O)CN1C(=O)C(C)(C)Oc2ccc(C(=O)NC(C)(C)CC)cc21,-15%
CC1=C(OC(=O)c2ccccc2)C(C)(C)C(c2ccc(Br)cc2)OC1=O (stereo not drawn),-13%
Cc1noc(C)c1S(=O)(=O)N1CCC(C(=O)N2CCN(c3ccc(Cl)cc3)CC2)CC1,-6%
COc1ccc(CCNC(=O)CSc2nc(C)cs2)cc1,0%
CCOc1ccc(-c2nnc(SCC(=O)N(CC)CC)n2N)cc1,-9%
O=C(O)CCC(NC(=O)OCc1ccccc1)C(=O)O (stereo not drawn),-9%
CCCS(=O)(=O)N1CCCC(C(=O)NCCCN(C)Cc2ccccc2)C1 (stereo not drawn),-10%
O=C(CCc1nc2ccccc2[nH]c1=O)OCC(=O)N1CCc2ccccc21,-12%
Fc1ccc(N2CCN(C(c3cccs3)c3nnnn3C3CCCC3)CC2)cc1 (stereo not drawn),-18%
Cc1nc(SCC(=O)Nc2ccc(C)c(F)c2)c2oc3ccccc3c2n1,-2%
O=C(C1CC(=O)N(C2CCCC2)C1)N1CCN(c2ccccc2F)CC1 (stereo not drawn),4%
O=C(c1ccccc1-c1nc(-c2ccc(F)cc2)no1)N1CCCC1,-6%
COc1ccc(CC(=O)Nc2nc3n(n2)C(c2ccccc2)CC(=O)N3)cc1OC (stereo not drawn),-2%
CC(=O)Nc1ccc(S(=O)(=O)NC2(C(F)(F)F)C(=O)Nc3c2c(=O)[nH]c(=O)n3C)cc1 (stereo not drawn),-30%
CC(=O)N(/N=C1\Sc2ccccc2C1=O)c1cccc(C)c1,3.5µM*
CCOC(=O)C1=C(C)NC2=C(C(=O)C(C(=O)OC)C(C)C2)C1c1ccc(OC)c(O)c1 (stereo not drawn),-3%
Cc1cc(OC(=O)c2ccccc2Br)cc(=O)n1C,13µM*
Cc1nnc(SCc2cc(=O)[nH]c(N3CCN(C)CC3)n2)s1,-1%

# Records listed above shown as hits in HPGD block.
SMILES,HPGD block
CC(=O)N(/N=C1\Sc2ccccc2C1=O)c1cccc(C)c1,3.5µM*
Cc1cc(OC(=O)c2ccccc2Br)cc(=O)n1C,13µM*

# Next part:
SMILES,HPGD block
C=CCc1cccc(CNc2nc3ccccc3n2CCC)c1O,-5%
O=C1NC(c2ccccc2)=N/C1=C/c1ccco1,u
O=C1COc2ccc3ccccc3c2CN1,-3%
Cc1cc(Cl)c(S(=O)(=O)NCc2ccccc2)cc1OCC(N)=O,-4%
O=C(N/N=C/c1ccc(Br)s1)c1ccccc1[N+](=O)[O-],-18%
CC(=O)Nc1ccc(S(=O)(=O)N2CCN(CC(O)COc3ccc4ccccc4c3)CC2)cc1 (stereo not drawn),-10%
Cc1ccc2nc(/N=C(\N)NC(=O)N3c4ccccc4Sc4ccccc43)nc(C)c2c1,-16%
CS(=O)(=O)N(Cc1ccccc1)c1ccccn1,-17%
CC/C=C/C(=O)N1CC2(CC(c3cccc(NC(=O)c4ccccc4)c3)=NO2)C[C@@H]1C(N)=O (stereo partly drawn),-13%
CC(C)NC(=O)CSCc1c(Cl)cccc1Cl,14µM*
Cc1cccc2cc(CN(CCCO)C(=O)Nc3cccc(Cl)c3)c(=O)[nH]c12,-14%
O=C(CN1C(=O)c2ccccc2S1(=O)=O)N1CCc2ccccc21,-12%
COc1nc(SC)nc(Cl)c1Cc1ccc(OC(C)C)cc1,-22%
Cc1ccc2nsnc2c1NC(=O)c1cccc([N+](=O)[O-])c1,-11%
O=C(NNc1nc2ccccc2s1)c1ccccc1F,-6%
O=C(N/N=C/c1ccccc1O)/C(=C/c1ccccc1)CCO,-7%
CCOC(=O)c1c(NC(=O)CSC2=NN3CCCC(=O)N=C3S2)sc2c1CCCCC2,-12%
CCCN1C(=O)SC(CC(=O)Nc2ccccc2C)C1=O (stereo not drawn),-3%
N#Cc1ccc2c(c1)N(CCCN1CCC(O)CC1)c1ccccc1S2,-3%
CCC(=O)Nc1cccc(NC(=S)NC(=O)c2cccs2)c1,-17%
CCOC(=O)c1sc2ccccc2c1OC(=O)c1ccccc1,-8%
CCC(C)[C@H](NC(=O)NCCCN1CCOCC1)C(=O)OC (stereo partly drawn),-6%
CCCC(=O)Nc1cccc(NC(=O)c2ccc3c(c2)OCCO3)c1,-11%
CC(C)(C)c1nc2c(C#N)c(-c3ccc(Cl)cc3)ccn2n1,u
Cc1cc(C(=O)CN2C(=O)c3ccccc3S2(=O)=O)c(C)n1CC1CCCO1 (stereo not drawn),-10%
COCCN(C(=O)CCC(=O)Nc1ccccn1)C(C(=O)NCCC(C)C)c1ccc(OC)cc1 (stereo not drawn),-5%
CN1/C(=C\C=C(/C#N)C(=O)Nc2ccccc2F)C(C)(C)c2ccccc21,-8%
COc1ccc(Nc2c3c(nc4c(-c5ccccc5)c(C)nn24)CCC3)cc1,u
CCC(C)(C)n1nnnc1CN1CCN(c2nc3cc(OC)ccc3cc2C#N)CC1,u
CC1CCCCN1C(=O)NC12CC3CC(CC(C3)C1)C2 (stereo not drawn),-5%
Cc1ccccc1NC(=O)c1ccc(S(=O)(=O)C(F)F)cc1,-1%
Cc1ccc(C(=O)NN2C(=O)/C(=C/c3cn(C)c4ccccc34)SC2=S)cc1,-20%
CCOC(=O)N1CCN(c2cc(N)c([N+](=O)[O-])cc2F)CC1,-1%
O=C(CSc1nc(-c2ccco2)cc(C(F)(F)F)n1)NCc1cccs1,-4%
Cc1cc(C)c2cc(CN(CCO)Cc3nnnn3Cc3ccccc3)c(=O)[nH]c2c1,-3%
CCCn1c(C)nc2c(N(C)CCN(C)C)nc(C)nc21,2%
C=CCn1c(=O)c2c(nc3n2CCS3)n(C)c1=O,-7%
CC1=Nn2c(nnc2-c2ccccn2)SC1,-4%
ON=C1CCN(c2ncc(C(F)(F)F)cc2Cl)CC1,-23%
O=P(OC1CCCCC1)(OC1CCCCC1)C(O)c1c(Cl)cccc1Cl (stereo not drawn),-11%

# Structural class, the compounds so far containing an aryl thioether with sulfur outside any ring
SMILES,HPGD block
O=C(CSc1nc2c(c(=O)n1-c1ccc(Br)cc1)SCC2)NCc1ccco1,-13%
COc1ccc(-c2ccc(SCC(=O)N3CCOCC3)nn2)cc1OC,-21%
CC(C)OC(=O)CSc1nnc(-c2cnccn2)n1-c1ccc(Cl)cc1,-20%
COc1ccc(-c2cc(C(F)(F)F)nc(SCCC(=O)N3CCOCC3)n2)cc1,-18%
COc1ccc(CCNC(=O)CSc2nc(C)cs2)cc1,0%
CCOc1ccc(-c2nnc(SCC(=O)N(CC)CC)n2N)cc1,-9%
Cc1nc(SCC(=O)Nc2ccc(C)c(F)c2)c2oc3ccccc3c2n1,-2%
Cc1nnc(SCc2cc(=O)[nH]c(N3CCN(C)CC3)n2)s1,-1%
COc1nc(SC)nc(Cl)c1Cc1ccc(OC(C)C)cc1,-22%
O=C(CSc1nc(-c2ccco2)cc(C(F)(F)F)n1)NCc1cccs1,-4%

# (more compounds)
SMILES,HPGD block
COc1ccc(C2C(=O)N(C3CCCCCC3)CC(=O)N2Cc2ccccc2)cc1OC (stereo not drawn),-2%
COc1ccc2ccccc2c1C1CC(=O)N2CN(Cc3ccco3)CSC2=C1C#N (stereo not drawn),7.9µM*
Cc1cc(=O)n(C)c(=O)n1CCCCCCOc1ccc([N+](=O)[O-])cc1,-16%
CC(=O)Nc1ccc(S(=O)(=O)NCc2ccc3c(c2)cc(C)n3C)cc1,-5%
Cn1cc(CNC(=O)C23CC4CC(CC(C4)C2)C3)cn1,-14%
CCOC(=O)N1CCC(NS(=O)(=O)c2cc(Br)cc3c2N(C(=O)CC)CC3)CC1,-14%
CC1CCCN(Cc2nc3c(c(=O)n(C)c(=O)n3C)n2CC(=O)c2ccccc2)C1 (stereo not drawn),-7%
CN1CC[C@@]23c4ccccc4N[C@H]1[C@]21CCN(C)[C@@H]3Nc2ccccc21,2%
CS(=O)(=O)N(CC(=O)NC1CCCC1)c1ccc2c(c1)OCCO2,-4%
CCCC(=O)Nc1cc(-c2nnc(OC)c3ccccc23)ccc1N1CCCCC1,-16%
CSC(=NCc1ccc(F)cc1)NS(=O)(=O)c1cccs1,-12%
O=C(CSc1nncs1)Nc1ccc(Cl)cn1,-6%
CCC(C)c1ccc(OCC(=O)O)cc1 (stereo not drawn),-5%
COc1ccccc1C1CN(c2ccc(F)cc2F)N=C1c1cccs1 (stereo not drawn),u
COc1ccc(NC(=O)N2CC[C@@]3(CCCN(C(=O)c4cnccn4)C3)C2)cc1,-1%
Cc1ccc(-n2c(SCC(=O)NCCN3C(=O)CSC3=O)nnc2-c2ccccc2)cc1,-8%
Cc1ccc(OCC(=O)N/N=C\c2ccc(-c3cccc(C(=O)O)c3)o2)c(C)c1,u
CCOc1cc(C2C(C(=O)OC(C)C)=C(C)N=C3SCCC(=O)N32)ccc1OC(C)=O (stereo not drawn),-15%
CCCc1cc(C(=O)Nc2cc(C)on2)no1,-10%
CCNC(=S)Nc1ccc(N(c2ccccc2)C(C)C)cc1,-29%

# 3 entries drawn at random from those above:
SMILES,HPGD block
CCCc1cc(C(=O)Nc2cc(C)on2)no1,-10%
COc1ccccc1C1CN(c2ccc(F)cc2F)N=C1c1cccs1 (stereo not drawn),u
CCNC(=S)Nc1ccc(N(c2ccccc2)C(C)C)cc1,-29%

# The results go on:
SMILES,HPGD block
C=CCn1c(SCc2ccc(C#N)cc2)nnc1-c1cccc(Cl)c1,-13%
COC(=O)NC(=C(Cl)Cl)S(=O)(=O)c1ccccc1,1%
c1ccc(COc2ccc(OCCCCN3CCCCC3)cc2)cc1,-15%
O=[N+]([O-])c1ccc2c(c1)c(S(=O)(=O)O)cc1nonc12,-15%
O=Cc1nc(-c2ccc(Cl)cc2)n2ccccc12,-8%
CC12CC(NC(=O)N1CCc1ccccc1)c1ccccc1O2 (stereo not drawn),-4%
C1=C(CCNc2ncnc3nc[nH]c23)CCCC1,-3%
O=C(Nc1ccc(Cl)cn1)c1cnn2cccnc12,-10%
CCCOc1ccccc1C1CC(=O)NC(C)=C1C(=O)OCC(C)C (stereo not drawn),-5%
COC(=O)c1ccccc1N/C=C1\CCc2c(c(C)nn2-c2ccccn2)C1=O,u
CSc1nc2ccc3nc(NC(=O)c4cccs4)sc3c2s1,u
COc1ccc(/C=N/NC(=O)c2nonc2C)cc1,-6%
Cc1ccc(SCc2nc3ccccc3n2CC(=O)Nc2c(C)cccc2C)cc1,-5%
COc1ccc2c(c1)O[C@@H](c1cccc(C(F)(F)F)c1)[C@H](OC(=O)Nc1cc(OC)c(OC)c(OC)c1)C2=O,-11%
O=C(CCn1ccc2ccccc21)Nc1ccc(N2CCOCC2)cc1,-5%
Cn1cnc2c1c(=O)n(Cc1ccccc1)c(=O)n2C,-10%
Cc1noc(C)c1C(=O)Nc1sc(C)c(C)c1C#N,-3%
O=C(/C=C/c1ccc(S(=O)(=O)NCc2ccco2)cc1)NCc1cccc(Cl)c1,-12%
O=C(Nc1nc2ccccc2s1)c1cnccn1,-16%
COc1ccc(CCC(=O)Nc2cc([N+](=O)[O-])ccc2OC)cc1,-15%
COc1cc(NC(=O)c2cc(-c3cccc(O)c3)on2)cc(OC)c1OC,-11%
COC(=O)C1=C(C)Nc2ncnn2C1c1ccco1 (stereo not drawn),0%
O=C1c2ccncc2C(=O)N1C1CCCCC1,0%
N#C/C(=C(/O)COC(=O)COc1ccc(Cl)cc1)c1nc2ccccc2[nH]1,-8%
CCCn1nnc(NC(=O)c2cccc(OCc3ccccc3)c2)n1,-21%
CC(C)[C@H](NC(=O)NCc1ccc(Cl)cc1)C(=O)O,-10%
CCC(C)(C)n1nnnc1C(c1cccs1)N1CCc2ccccc21 (stereo not drawn),-17%
O=C(CNC(=O)c1cccs1)NCC(=O)OCc1ccc(Cl)cc1Cl,-8%
CCC(=O)Nc1cc(C(F)(F)F)ccc1N1CCOCC1,-1%
Cc1cc(N(C)C)c(C#N)c(NCc2ccccc2)n1,-25%
CC(Nc1ccccc1)c1cc(Cl)ccc1O (stereo not drawn),-27%
